ADAM10 inh = human ADAM10 inhibitors, primary screen, biochemical, QFRET, HTS. Disintegrin and metalloproteinase domain-containing protein 10 (Homo sapiens), O14672. recombinant ADAM10, EDANS/DABCYL FRET peptide cleavage, 3 h. inhibition, % at 7 µM. 370,000 compounds, 0.62% hits. AID 720582, 2013;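 active means inhibition above a per-campaign cutoff equal to the mean of compounds falling between control-based bounds plus 3 SD, cut at about 20% in these data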;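 further: 0% = DMSO wells while the 100% control is not disclosed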
ASAP1 GAP inh = inhibitors of human ASAP1 ArfGAP activity, primary screen, biochemical, fluorescence polarization. ASAP1-stimulated ARF1 GTP hydrolysis, GDP FP detection. 360,000 compounds, 0.19% hits. inhibition, % at 16.5 µM. AID 624377, 2012. Arf-GAP with SH3 domain, ANK repeat and PH domain-containing protein 1 (Homo sapiens), …; in the data active means inhibition above about 25%;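 further: 0% = vehicle with enzyme and substrate and 100% = no enzyme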
ADAM17 inh = ADAM17 inhibitors, primary screen, biochemical, QFRET; recombinant ADAM17, EDANS/DABCYL FRET peptide cleavage; inhibition, % at 6.95 µM; 370,000 compounds, 0.83% hits; AID 720648, 2013;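 active means inhibition above the mean of compounds lying between control limits plus 3 SD, set per campaign, cut at about 8.5% in these data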;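 further: 0% = DMSO-only wells as the low control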
LEDGF integ inh = blockers of LEDGF/p75-dependent integrase strand transfer – biochemical, TR-FRET, high throughput, primary screen | TR-FRET IN-LEDGF/p75 DNA integration, Eu/Cy5 | inhibition, % at 3.7 µM | 370,000 compounds, 0.64% hits;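 active means inhibition above the screen-wide mean plus 3 SD, cut at about 13% in these data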;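 further: signal is the Cy5 over europium emission ratio at 671 and 618 nm; 0% = plate median of compound wells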
PLCg1 inh = PLC-gamma1 enzyme inhibitors, primary screen, biochemical, fluorescence, purified enzyme; AID 720700, 2013; 1-phosphatidylinositol 4,5-bisphosphate phosphodiesterase gamma-1 (Homo sapiens), P19174; inhibition, % at 12.2 µM; 370,000 compounds, 0.84% hits; fluorogenic substrate; in the data active means inhibition above about 9.5%
Tn6 DDE FP = inhibitors of Tn6 peptide binding to fibrin DD(E), primary screen, biochemical, fluorescence polarization, human fibrin, Tn6 probe; Fibrinogen beta chain (Homo sapiens), P02675; Fibrin DD(E) TRITC-Tn6 fluorescence polarization displacement; inhibition, % at 8.3 µM; 370,000 compounds, 0.21% hits; AID 720509, 2013;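 active means inhibition above a per-campaign cutoff: mean of compounds within control limits plus 3 SD, cut at about 15% in these data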;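 further: 0% = median of all compound wells on the plate and 100% = blocking peptide control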
Tn7 DDE FP = inhibitors of Tn7 peptide binding to fibrin DD(E), primary screen, biochemical, fluorescence polarization, human fibrin, Tn7 probe. inhibition, % at 8.3 µM. Fibrinogen beta chain (Homo sapiens), P02675. 370,000 compounds, 0.13% hits. AID 720508, 2013. FP displacement of FITC-Tn7 peptide from fibrin DD(E); 0% = median of compound wells per plate;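 active means inhibition above the mean of compounds falling within the control limits plus 3 SD of them, cut at about 14% in these data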;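 further: 0% = plate median of compound wells and 100% = 10 µM Aha-Tn7 peptide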
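Also added: labelled Tn7 tracer, 0.1 µM; Assay system: human fibrin DD(E) protein; Amount: 2 µM fibrin DD(E); Schedule: 10 min compound pre-incubation, 3 h probe incubation at room temperature; Repeats: one replicate per compound; Read-out basis: percent inhibition; Measured by: fluorescence polarization of the labelled Tn7 tracer.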
TDP2 absorb = human TDP2 enzyme inhibitors, primary screen, biochemical, epi absorbance, recombinant enzyme; 370,000 compounds, 0.34% hits; Tyrosyl-DNA phosphodiesterase 2 (Homo sapiens), O95551; T5PNP hydrolysis, p-nitrophenol absorbance 415 nm; inhibition, % at 12.8 µM;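 active means inhibition above the mean of all tested compounds plus 3 SD, set per campaign, cut at about 25% in these data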;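 further: 0% = DMSO with enzyme and 100% = buffer with substrate but no TDP2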
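System: recombinant human TDP2 / Amount: 120 nM TDP2 per well / Also added: 5 mM T5PNP chromogenic substrate / Doses: 12.8 µM single point, 1% DMSO / Incubation: 2 h at 37 °C / Detection: p-Nitrophenol epi absorbance / Evaluation: % inhibition relative to enzyme-containing and enzyme-free wells / Repeats: singlicate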
ARFGAP1 inhibitor = inhibitors of rat ARFGAP1 GAP activity, primary screen, biochemical, fluorescence polarization, GDP tracer. 360,000 compounds, 0.26% hits. ADP-ribosylation factor GTPase-activating protein 1 (Rattus norvegicus), Q62848. Arfgap1-stimulated ARF1 GTP hydrolysis, GDP FP detection. inhibition, % at 16.5 µM;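 active means inhibition above a per-plate limit, mean inhibition of low control wells plus 3 SD, cut at about 25% in these data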;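 further: 0% = DMSO wells with enzyme and 100% = wells lacking Arfgap1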
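Replicates: Single well per compound | Assay system: Truncated rat Arfgap1 GAP domain | Control set: No-Arfgap1 wells (100%) versus DMSO full-reaction wells (0%) | Times: Enzyme reaction 120 min at 25 °C after 20 min preincubation | Reagent: Human ARF1(Δ1-17)-GTP substrate | Measured by: Tracer-displacement fluorescence polarization with EDTA stop, 620/688 nm | Measure: Percent inhibition of Arfgap1-stimulated GTP hydrolysis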
* hit, by the source's call. Only part of the results is shown, so the mix of outcomes need not match the whole.

1: CCc1cccc(NC(=O)CCNS(=O)(=O)c2cc(Br)cnc2N)c1
2: CN(CC(=O)Nc1ccc(Cl)c(Cl)c1)C(=O)CNC(=O)Cc1ccccc1
3: O=C(O)C1CC=CCC1C(=O)NCc1cn2ccccc2n1 (centres undefined)
4: COc1ccc(N2CCN(C(=O)CC3NC4CCCCC4NC3=O)CC2)cc1 (centres undefined)
5: NC(=O)c1ccc(NC(=O)CS(=O)(=O)c2cn(CC(=O)N3CCCCC3)c3ccccc23)cc1
assay / compound,1,2,3,4,5
ADAM10 inh,-2,-2,-15,-5,-8
ASAP1 GAP inh,8,7,4,-17,-4
ADAM17 inh,-2,-6,-7,-2,-1
LEDGF integ inh,0,-4,4,-2,-6
PLCg1 inh,3,6,-12,1,-1
Tn6 DDE FP,-10,0,-5,5,4
Tn7 DDE FP,1,-4,1,5,5
TDP2 absorb,-5,-22,6,-6,-10
ARFGAP1 inhibitor,-2,4,10,5,-5

Compounds above that contain sulfur, in the order listed:
1: CCc1cccc(NC(=O)CCNS(=O)(=O)c2cc(Br)cnc2N)c1
5: NC(=O)c1ccc(NC(=O)CS(=O)(=O)c2cn(CC(=O)N3CCCCC3)c3ccccc23)cc1
assay / compound,1,5
ADAM10 inh,-2,-8
ASAP1 GAP inh,8,-4
ADAM17 inh,-2,-1
LEDGF integ inh,0,-6
PLCg1 inh,3,-1
Tn6 DDE FP,-10,4
Tn7 DDE FP,1,5
TDP2 absorb,-5,-10
ARFGAP1 inhibitor,-2,-5

The list continues.
6: O=C(O)c1ccc(Cl)c(NCc2cccnc2)c1
7: O=C1C2C3c4ccccc4C(c4ccccc43)C2C(=O)N1Cc1ccccn1 (centres undefined)
8: Cc1csc(SCC(=O)NC2CCC(C)CC2)n1 (centres undefined)
9: COc1ccc(CNC(=O)CCC(=O)c2ccccc2)cc1
10: COc1ccc(C(=O)COC(=O)c2ccc3c(c2)OCCO3)c(OC)c1
assay / compound,6,7,8,9,10
ADAM10 inh,6,2,-4,-6,-1
ASAP1 GAP inh,-16,-2,3,-5,5
ADAM17 inh,-2,-4,2,-2,-2
LEDGF integ inh,-3,5,6,-5,3
PLCg1 inh,2,2,3,-19,2
Tn6 DDE FP,-5,4,4,-10,-1
Tn7 DDE FP,11,1,-3,1,5
TDP2 absorb,6,-7,-11,-12,0
ARFGAP1 inhibitor,8,1,8,-1,4

11: NC(=O)c1cccnc1Nc1ccccc1Cl
12: COc1cc(-c2nnc(COC(=O)c3cccn3C)o2)cc(OC)c1OC
13: O=C(Cc1ccc(Cl)cc1)Nc1ccc(N2CCN(C(=O)c3ccco3)CC2)cc1
14: CCC(C)(CN(C)C)OC(=O)c1ccccc1 (centres undefined)
15: Cc1ccc(S(=O)(=O)N[C@H](C(=O)N2CCC(C(=O)N3CCC[C@H]3C(=O)O)CC2)C(C)C)cc1
assay / compound,11,12,13,14,15
ADAM10 inh,-7,-11,4,2,-14
ASAP1 GAP inh,-3,3,6,3,6
ADAM17 inh,-5,-3,1,0,0
LEDGF integ inh,1,0,-2,4,2
PLCg1 inh,1,-4,1,3,2
Tn6 DDE FP,1,3,4,0,10
Tn7 DDE FP,0,1,5,2,10
TDP2 absorb,-5,-2,-3,2,-1
ARFGAP1 inhibitor,-7,1,4,7,7

2 entries from above, as labelled records:
[12] COc1cc(-c2nnc(COC(=O)c3cccn3C)o2)cc(OC)c1OC
  ADAM10 inh: -11	ASAP1 GAP inh: 3	ADAM17 inh: -3	LEDGF integ inh: 0	PLCg1 inh: -4	Tn6 DDE FP: 3	Tn7 DDE FP: 1	TDP2 absorb: -2	ARFGAP1 inhibitor: 1

[14] CCC(C)(CN(C)C)OC(=O)c1ccccc1 (centres undefined)
  ADAM10 inh: 2	ASAP1 GAP inh: 3	ADAM17 inh: 0	LEDGF integ inh: 4	PLCg1 inh: 3	Tn6 DDE FP: 0	Tn7 DDE FP: 2	TDP2 absorb: 2	ARFGAP1 inhibitor: 7
